# Assay outcomes from PubChem.
# Sfp PPTase inh: inhibitors of Bacillus subtilis Sfp phosphopantetheinyl transferase; Q9F4F7; Biochemical Sfp PPTase activity, qHTS; Potency, µM, for the others: max response, negative = inhibition, most hits filed as inhibitors; 3.5% of 310,000 active; AID 1490; active = well fitted inhibition curve with a large enough effect; inconclusive = small, poorly fitted or top-dose-only effect, or another doubt; inactive = no such curve, though single readings can be large or run the other way;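 also: the enzyme is Sfp with the accession as filed and its product quenches rhodamine fluorescence; potency is read from the fitted curve at half-maximal effect; 0% = enzyme reaction without inhibitor and -100% = no enzyme wells; top concentration of the series not given in the record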
#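 Compounds were incubated with enzyme (final 15 nM) for 15 min at room temperature before substrate addition started the reaction. Fluorescence at 525 nm excitation, 598 nm emission was recorded immediately and after 30 minutes.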
# TRPV1 potentiator: human TRPV1 potentiation | Q8NER1 | TRPV1-expressing cells, Fluo-8 calcium influx, capsaicin EC20 potentiation; host cell line not named in the record; control for the full effect not named in the record | potentiation, % at 8.33 µM | 0.02% of 320,000 active; active means potentiation above 80%; inconclusive means 30% to 80%; inactive means below 30%; also: 0% is about no effect
#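 TRPV1-expressing cells were cultured overnight at 35.5C and loaded with Fluo-8 calcium dye for 40 to 90 min at room temperature. After a 10 s baseline, compound was added and calcium influx was read kinetically for 3 min (ex 480/em 520 nm).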
# D2 agonist: agonists of human D2 dopamine receptor (beta-arrestin). P14416. DiscoveRx PathHunter D2 beta-arrestin, luminescence, 90 min; 100% = 57 uM dopamine signal. activation, % (concentration not given with the values). 0.084% of 360,000 active. AID 624465; in the data active = activation above about 40%; inconclusive = about 15% to 40%; inactive = below about 15%; also: compound concentration not given in the record; the text of the record calls up to 30% inactive
# Target sequence (P14416 whole entry, looked up): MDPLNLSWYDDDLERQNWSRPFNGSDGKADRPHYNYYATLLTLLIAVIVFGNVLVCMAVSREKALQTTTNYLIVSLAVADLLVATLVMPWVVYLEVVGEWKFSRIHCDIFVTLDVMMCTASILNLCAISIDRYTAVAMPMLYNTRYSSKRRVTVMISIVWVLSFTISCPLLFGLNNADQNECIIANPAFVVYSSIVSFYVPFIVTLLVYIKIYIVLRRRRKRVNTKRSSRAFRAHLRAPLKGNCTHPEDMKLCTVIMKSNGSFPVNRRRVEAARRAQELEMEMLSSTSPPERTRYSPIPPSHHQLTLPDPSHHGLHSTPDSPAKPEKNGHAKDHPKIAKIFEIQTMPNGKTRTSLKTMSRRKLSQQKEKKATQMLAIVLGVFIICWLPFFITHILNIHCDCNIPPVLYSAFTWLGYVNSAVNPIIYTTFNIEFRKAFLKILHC
#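 Agonist mode: compounds alone added to overnight-plated D2 PathHunter cells for 90 min at 37 C, with 57 uM final dopamine (EC100) defining full response. Beta-arrestin recruitment detected by chemiluminescent reagent, read after 1 h at ambient temperature.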
# PINK1 modulator: PINK1 expression modulation. PINK1 immunofluorescence, high-content cytometry, 24 h. Potency, µM (series often up to 76.6 µM), inactives show top-dose activation (PINK1 increase), usual class: activators. 0.2% of 410,000 active. AID 624263; active = well fitted activation curve with a large enough effect; inconclusive = small, poorly fitted or top-dose-only effect; inactive = flat fitted curve, though single readings scatter; cell line not stated here;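 also: potency is read from the fitted curve at half-maximal effect; % of control where 0% means no effect; nearly all actives have a fitted effect of over 65% in size; a mitochondrial uncoupler was the plate control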
#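 Decision-based qHTS: stable cells, 24 h exposure to five compound concentrations, CCCP as control. Fixed cells stained for PINK1 plus nuclear, mitochondrial and cell markers, cytometer read.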
# CtBP-E1A inh: blocks the CtBP interaction with E1A. AlphaScreen GST-E1A/His-CtBP binding, 1536-well; hits give low values; control for the full effect not named in the record. activity change, % (concentration not given with the values). 0.49% of 340,000 active; in the data active means activity change below about -65%; inconclusive means about -30% to -65%; inactive means above about -30%; also: % is scaled to controls: 0 for no effect and ±100 for the full control effect
#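 In 5 uL wells, 23 nL compound meets equimolar GST-E1A and His-CtBP (5X stock 125 nM each) for 2 h, 37 °C. Beads (5X, 50 ug/mL) then 1 h, 37 °C, dark.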
# D2 PAM: positive allosteric modulators of human D2 dopamine receptor | P14416 | DiscoveRx D2 beta-arrestin cells, luminescence, 90 min; 100% = 57 uM dopamine signal | potentiation, % (no concentration beside the values) | 0.23% of 360,000 active; active = potentiation of 50% or more; inconclusive = 30% to 50%; inactive = 30% or less;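 also: compound concentration not given in the record; tested on top of an EC20 dose of dopamine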
#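 PathHunter D2 cells, attached overnight at 37 deg C, received compound in DMSO plus dopamine at EC20 (50 nM final) for 90 min at 37 deg C. Beta-arrestin recruitment was read as luminescence after 1 h with detection reagent at ambient temperature.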
# Six1-Eya2 blk: blocks human Six1 binding to Eya2 | AID 651725 | AlphaScreen GST-Six1/His-Eya2 binding, biochemical; hits give low values; control for the full effect not named in the record | 0.56% of 360,000 active | activity change, % (concentration not given with the values); in the data active = activity change below about -65%; inconclusive = about -30% to -65%; inactive = above about -30%; also: % is scaled to controls: 0 for no effect and ±100 for the full control effect
#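 Compounds are tested against tagged Six1 and Eya2 proteins bridged by glutathione donor and nickel acceptor beads; after a one-hour incubation at 37 °C without light, AlphaScreen emission is recorded.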
# An asterisk follows results filed as active; ? = inconclusive; · = not tested or not shown; & = joins results of further samples; [ ] = another dose, or the depositor's remark. The order is random; 3.7% or so of the library scored in one or more.
No.	Compound	PINK1 modulator	D2 PAM	Six1-Eya2 blk	D2 agonist	Sfp PPTase inh	CtBP-E1A inh	TRPV1 potentiator
1	C=CCNC(=S)N1CCN(CCN=CC2=C(O)CC(c3ccco3)CC2=O)CC1 (stereo unspecified)	0.8%	-1	-7	2.4	-4%	-4	4
2	CCOC(=O)N1CCC(n2c(=S)[nH]c3cc(OC)c(OC)cc3c2=O)CC1	5.5%[38.3 µM]	-1	-1	-0.4	19%	-2	6
3	N/C(CSc1ncccc1C(F)(F)F)=N\O	2.3%	-16	3	6.1	10%	-17	·
4	CCCCNC(=O)C1Cc2cc(S(=O)(=O)N3CCCCC3)ccc2N1C(C)=O (stereo unspecified)	-1.0%	-7	-3	9.2	10%	4	-11
5	CC(C)(C)c1ccc(CNc2cc(N3CCOCC3)ccc2[N+](=O)[O-])cc1	1.1%	-5	?	-6.7	-6%	-20	2
6	Cc1cc(NC(=O)c2ccc(Cl)c([N+](=O)[O-])c2)no1	-0.1%	4	-20	-1.0	-1%	-15	-12
7	CC(CCc1ccc(O)cc1)N1CCC(Oc2ccc(C(=O)N3CCCC3)cc2)CC1 (stereo unspecified)	-3.9%	-12	3	13	9%	-1	-13
8	COc1ccc(NC(=S)Nc2ccc3cn[nH]c3c2)cc1	0.4%	1	-7	-3.5	0%	-9	-23
9	Cc1ccc(N2C(=O)C3C4C=CC(CC4)C3C2=O)cc1[N+](=O)[O-] (stereo unspecified)	1.5%	11	-2	-2.9	32µM*	·	-19
10	O=C(O)CCC(=O)Nc1ccc(Br)cc1C(=O)c1ccc(Cl)cc1	-0.4%	-11	1	-3.3	17%	-4	-3
11	O=C(CN1CCN(Cc2ccccc2)CC1)c1ccc(Br)cc1	9.0%[38.3 µM]	-14	0	-4.4	1%	0	1
12	O=C(Nc1cccc(O)c1)c1ccccc1[N+](=O)[O-]	-1.5%	-8	2	6.7	22%	2	7
13	CCOC(=O)C1C(c2ccc(OC)cc2)N(C)OC1(O)C(F)(F)F (stereo unspecified)	-1.6%	-8	0	-2.5	19%	0	28
14	ClN=C1C=CC=CC1=NCl	3.5%	14	-18	5.0	·	-28	·
15	COc1ccccc1C(=O)N/C(=C/c1ccccc1)C(=O)NC(CCSC)C(=O)O (stereo unspecified)	·	-1	4	-1.8	16%	-2	6
16	COc1ccc(CNC(=O)c2c(O)c3ccccc3n(C)c2=O)cc1	4.7%	-3	6	-3.8	0%	6	20
17	C/C(CC(=O)Nc1ccc(C)c(Cl)c1)=N\NC(=O)c1ccncc1	4.6%	-26	-3	-4.5	4%	-1	2
18	CCC(C(=O)N1CCN(c2cccc(Cl)c2)CC1)c1ccccc1 (stereo unspecified)	2.2%	-8	0	1.0	-1%	11	-14
19	Cc1nn(-c2ccccc2)c(Cl)c1/C=N/Nc1nncc(=O)[nH]1	0.8%	0	-16	6.2	-23%	?	15
20	COc1ccc(C2=CSC3=NCCN23)cc1	1.6%	-1	-6	-3.3	3%	-2	4
21	O=C(Nc1ccc(F)cc1)c1cccc(C(=O)Nc2ccc(F)cc2)c1	4.5%	-5	1	-2.2	15%	·	-4
22	COc1cccc(Cn2cnc3c(NS(=O)(=O)c4ccc(Cl)cc4)c(C)c(C)cc32)c1	15%	?	-3	0.2	-14%	1	19
23	O=C(C[n+]1cc(-c2ccc(F)cc2)n2c1CCC2)Nc1nc(-c2ccc(F)cc2)cs1	0.6%	-40	-2	-1.2	-14%	3	-4
24	O=C(Nc1cccc2cccnc12)C1CCCC1	9.0%	-6	-3	-4.9	9%	9	-10
25	O=C(O)CCCC(=O)Nc1ccc(Cl)cc1	-0.8%	-3	-2	-2.8	13%	6	-46
26	CCC(CCC(=O)Nc1cccc(C(=O)O)c1)C(=O)O (stereo unspecified)	0.2%	-1	9	0.2	0%	0	7
27	CCCCC(c1nnnn1C1CCCC1)N1CCN(C2CCCCC2)CC1 (stereo unspecified)	-2.3%	-23	6	-2.0	2%	-4	10
28	CCc1ccc(-c2cc3c(=O)n(CC(=O)NCc4ccccc4F)ncn3n2)cc1	-0.3%	-8	0	-2.1	2%	-6	-7
29	C#CCOCCOCCOCCNc1nc(N2CCN(C(=O)[C@H](CCC(=O)O)n3cc(C(N)Cc4ccc(O)cc4)nn3)CC2)nc(N2CCN(C(=O)[C@H](Cc3cc4ccccc4[nH]3)n3cc(C(N)[C@H](C)CC)nn3)CC2)n1 (stereo partly specified)	2.0%	-12	-19	0.3	3%	-15	-12
30	Cc1ccc(OCC(=O)NNC(=O)c2cccnc2)cc1	-2.2%	-7	4	-0.4	9%	-2	·
31	CS(=O)(=O)c1ccc(Cl)c(NC(=O)CNC(=O)c2ccc3c(c2)OCO3)c1	1.2%	-12	-13	-2.3	·	-18	·
32	C(=C\c1ccccc1)/CN1CCN(C(c2ccccc2)c2nnnn2Cc2ccccc2)CC1 (stereo unspecified)	6.4%	-13	-26	-3.3	·	-16	·
33	O=C(NC(c1ccccc1)c1cnccn1)C1CCN(Cc2ccc(Cl)c(Cl)c2)CC1 (stereo unspecified)	0.1%	-25	-17	-5.5	·	-10	·
34	CC(=O)Nc1ccc(/C(C)=N/Nc2nc(N3CCOCC3)nc(N3CCOCC3)n2)cc1	0.8%	-15	-2	-12	1%	4	-3
35	COc1ccc(NC(=O)COc2ccccc2Cl)cc1S(=O)(=O)N1CCCCC1	6.2%	-24	-1	-4.4	·	0	10
36	CN(N=Nc1cccc([N+](=O)[O-])c1)c1ccccc1	10%	-4	-10	-1.7	-16%	-6	-17
37	C=CCn1c(C)cc(C(=O)COC(=O)/C=C/c2c(C)nn(C3CCS(=O)(=O)C3)c2Cl)c1C (stereo unspecified)	-2.4%	-6	-19	0.9	·	-7	1
38	O=C(NCc1ccco1)c1cc(-c2ccncc2)nc2ccccc12	0.1%[38.3 µM]	2	-6	-0.1	-6%	1	-11
39	CC1(C)N=C(N)NC(Nc2ccc(Cl)cc2)=N1	-3.3%	-6	6	-2.8	·	-2	·
40	CS(=O)(=O)c1ccc(Cl)c(NC(=O)Cc2ccccc2F)c1	1.2%	1	-6	4.9	16%	-2	7
41	Cc1cccc(N=C2NC(=O)CS2)c1C	8.6%[38.3 µM]	2	7	0.5	8%	3	10
42	COc1cc(C(=O)Sc2ccc(Cl)cc2)cc(OC)c1OC	2.6%	-9	6	-1.9	-9%	-2	-6
43	O=C(N/N=C/c1cccs1)c1ccc2nc[nH]c2c1	0.6%	-6	1	-2.5	-5%	·	-4
44	CCc1ccc[n+](-c2[nH]c(=O)sc2/C=N/N=C(\[O-])c2cccnc2)c1	-0.1%	-5	-8	-1.4	-16%	-19	-3
45	Cc1cccnc1NC(=O)CSc1nnc(Cc2ccccc2)o1	-3.0%[38.3 µM]	-5	2	-0.9	3%	-3	4
46	O=C(NC1CCCCC1)C(c1ccccc1)N(Cc1ccc2c(c1)OCO2)C(=O)c1cnsn1 (stereo unspecified)	1.5%	-7	-9	-6.1	11%	-2	-8
47	O=C(CC1CCCCC1)Nc1ccc(-c2ccc3nncn3n2)cc1	18%	-2	-4	-2.4	11%	8	-7
48	COc1cc(C(C(=O)NC2CCCC2)N(CCO)C(=O)Cn2nnc(-c3ccc(C)o3)n2)ccc1O (stereo unspecified)	2.7%	-11	1	-2.0	5%	0	1
49	COc1ccccc1/C=C/C(=O)OCC(=O)Nc1c(F)cccc1F	13%	0	0	3.6	15%	7	6
50	O=Cc1ccc(C(=O)O)cc1	0.4%	-15	8	1.9	·	10	-2

# Next section
No.	Compound	PINK1 modulator	D2 PAM	Six1-Eya2 blk	D2 agonist	Sfp PPTase inh	CtBP-E1A inh	TRPV1 potentiator
51	O=C(NCc1cccnc1)c1ccc(COc2ccc(Cl)cc2)cc1	0.6%	-12	-5	7.4	-5%	·	0
52	CC12CCC(=O)N1C(C(=O)OCC(=O)Nc1ccc(C(F)(F)F)cc1)CS2 (stereo unspecified)	-1.1%	-3	1	0.2	·	3	16
53	O=C1OC(NCc2cccnc2)(c2ccc(Cl)cc2)c2ccccc21 (stereo unspecified)	3.2%	-6	-3	-2.9	17%	10	12
54	N#Cc1c(-c2ccccc2)ccn(Cc2cccc(Cl)c2)c1=O	5.9%	-10	-4	1.7	-8%	4	·
55	COc1ccc(C2CCCN2C(=O)Nc2ccc(F)cc2)cc1OC (stereo unspecified)	0.7%	1	3	-2.2	4%	6	-15
56	CN(C)c1ccc(CNC2CC(C)(C)NC(C)(C)C2)cc1	-1.1%	7	-5	-3.1	-8%	0	?
57	O=C1Cc2c(-c3ccccc3)cc(-c3cccc(Cl)c3)nc2-c2ccccc2N1	0.1%	4	9	3.5	·	-10	·
58	COc1ccc(Cn2c(-c3ccco3)nc3c(c(=O)c4ccccc4n3C)c2=O)cc1	-0.5%	-11	-1	-3.6	-18%	·	?
59	Cc1ccc(NC(=O)C(C)[n+]2ccccc2)cc1[N+](=O)[O-] (stereo unspecified)	-0.8%	-19	0	-2.9	7%	9	-4
60	Cc1ccccc1NC(=O)N1CCCC1C(=O)NCc1cccs1 (stereo unspecified)	3.8%	-17	6	-1.2	-2%	5	7

# Of the compounds above, 3 have a CF3 group.
No.	Compound	PINK1 modulator	D2 PAM	Six1-Eya2 blk	D2 agonist	Sfp PPTase inh	CtBP-E1A inh	TRPV1 potentiator
3	N/C(CSc1ncccc1C(F)(F)F)=N\O	2.3%	-16	3	6.1	10%	-17	·
13	CCOC(=O)C1C(c2ccc(OC)cc2)N(C)OC1(O)C(F)(F)F (stereo unspecified)	-1.6%	-8	0	-2.5	19%	0	28
52	CC12CCC(=O)N1C(C(=O)OCC(=O)Nc1ccc(C(F)(F)F)cc1)CS2 (stereo unspecified)	-1.1%	-3	1	0.2	·	3	16

# The results go on:
No.	Compound	PINK1 modulator	D2 PAM	Six1-Eya2 blk	D2 agonist	Sfp PPTase inh	CtBP-E1A inh	TRPV1 potentiator
61	Nc1cccc(-c2cn(-c3cc4cc(C#CC5(O)CCCCC5)ccc4oc3=O)nn2)c1	-0.7%	4	-3	-0.8	·	1	-1
62	O=S(=O)(c1ccc2nc(N3CCN(c4ccccc4)CC3)ccc2c1)N1CCCCC1	4.8%&1.1%	-5	12	-5.6	-5%	·	2
63	O=C1C=C(c2cccs2)C[C@H](c2ccccc2)[C@H]1n1nnc([N+](=O)[O-])n1	1.5%	92*	-18	?	4%	-7	-4
64	COCC(C)NCc1ccccc1C (stereo unspecified)	2.2%	-5	6	5.6	9%	2	-16
65	COc1cccc(-c2cnc(C(O)c3ccc(C(C)(C)C)cc3)[nH]2)c1 (stereo unspecified)	15%	-4	-26	-4.8	·	-20	·
66	CCc1ccccc1OCC(=O)N(CC)CC(=O)NCc1ccc(F)cc1	1.9%	-5	-2	-3.4	13%	·	6
